D2 potentiator – Beta-Arrestin HTS for Positive Allosteric Modulators of the Human D2 Dopamine Receptor: Potentiators | DiscoveRx D2 beta-arrestin cells, luminescence, 90 min; 100% = 57 uM dopamine signal | 0.23% of 360,000 active | D(2) dopamine receptor (Homo sapiens), P14416 | AID 624464, 2012 | potentiation, % (test concentration not listed); active = potentiation of 50% or more; inconclusive = 30% to 50%; inactive = 30% or less;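 note: compound concentration not given in the record; tested on top of an EC20 dose of dopamine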
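D2 cells co-treated with compound plus 50 nM dopamine (EC20) for 90 min at 37 deg C to detect potentiation. Beta-arrestin recruitment was read as enzyme-fragment luminescence after 1 h at ambient temperature. Full response was set by 57 uM dopamine.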
PINK1 modulator – A Quantitative High throughput Screen to Identify Chemical Modulators of PINK1 Expression; PINK1 immunofluorescence, high-content cytometry, 24 h; Potency, µM (highest dose often 76.6 µM), for inactives: at the highest dose activation (PINK1 increase), most hits filed as activators; 0.2% of 410,000 active; AID 624263, 2012; active = well fitted activation curve with a large enough effect; inconclusive = small, poorly fitted or top-dose-only effect; inactive = flat fitted curve, though single readings scatter; cell line not stated here;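 note: potency is the fitted concentration of half-maximal effect; % of control where 0% means no effect; nearly all actives have a fitted effect of over 65% in size; a mitochondrial uncoupler was the plate control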
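Cells are seeded, rested 12 hours, then given compound at five concentrations or DMSO for 24 hours. After fixation, blocking and antibody staining, PINK1 amount and mitochondrial localization are scored; CCCP serves as control.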
CtBP-E1A blk – qHTS Assay for Inhibitors of the CtBP/E1A Interaction | AlphaScreen GST-E1A/His-CtBP binding, 1536-well; hits give low values; control for the full effect not named in the record | AID 651724, 2012 | activity change, % (no concentration beside the values) | 0.49% of 340,000 active | CtBP / adenovirus E1A interaction (AlphaScreen); in the data active means activity change below about -65%; inconclusive means about -30% to -65%; inactive means above about -30%; note: % is set by controls: 0 for no effect and ±100 for the full control effect; compound concentration not given in the record
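GST-E1A and His-tagged CtBP (125 nM each as 5X stock) were preincubated with pin-transferred compound for 2 h at 37 °C in the dark, then glutathione donor and nickel acceptor beads were added for 1 h before AlphaScreen reading.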
Sfp inh – qHTS Assay for Inhibitors of Bacillus subtilis Sfp phosphopantetheinyl transferase (PPTase). Biochemical Sfp PPTase activity, qHTS. Potency, µM, without a hit: max response, negative = inhibition, hits mostly inhibitors. 3.5% of 310,000 active. AID 1490, 2009; active = well fitted inhibition curve with a large enough effect; inconclusive = small, poorly fitted or top-dose-only effect, or another doubt; inactive = no such curve, though single readings can be large or run the other way;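 note: the enzyme is Sfp with the accession as filed and its product quenches rhodamine fluorescence; potency is the fitted concentration of half-maximal effect; 0% = enzyme reaction without inhibitor and -100% = no enzyme wells; top concentration of the series not given in the record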
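Fluorescence-quenching assay: 15 nM Sfp-PPTase preincubated 15 min at room temperature with compound, then 5 uM rhodamine-CoA and 12.5 uM BHQ-2-labelled YbbR peptide added. Fluorescence (ex 525/em 598 nm) read at start and after 30 min; difference gives rate.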
D2 agonist – Beta-Arrestin HTS for Positive Allosteric Modulators of the Human D2 Dopamine Receptor: Agonists | D(2) dopamine receptor (Homo sapiens), P14416 | DiscoveRx PathHunter D2 beta-arrestin, luminescence, 90 min; 100% = 57 uM dopamine signal | activation, % (no concentration beside the values) | 0.084% of 360,000 active; in the data active = activation above about 40%; inconclusive = about 15% to 40%; inactive = below about 15%; note: compound concentration not given in the record; the text of the record calls up to 30% inactive
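DiscoveRx PathHunter D2 beta-arrestin cells (2,100/well) attached overnight, then compound-stimulated 90 min at 37 C in HBSS/10 mM HEPES/0.1% Tween-20 buffer; beta-galactosidase complementation read by luminescence after 1 h at ambient temperature. Dopamine 57 uM final (EC100) as control.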
TRPV1 PAM – HTS Assay for Compounds that Act as Potentiators of the Vanilloid Receptor 1; Transient receptor potential cation channel subfamily V member 1 (Homo sapiens), Q8NER1; TRPV1-expressing cells, Fluo-8 calcium influx, capsaicin EC20 potentiation; host cell line not named in the record; control for the full effect not named in the record; potentiation, % at 8.33 µM; 0.02% of 320,000 active; active means potentiation above 80%; inconclusive means 30% to 80%; inactive means below 30%; note: 0% is about no effect
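TRPV1-expressing cells were cultured overnight at 35.5C and loaded with Fluo-8 calcium dye for 40 to 90 min at room temperature. After a 10 s baseline, compound was added and calcium influx was read kinetically for 3 min (ex 480/em 520 nm).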
Six1-Eya2 blk – qHTS Assay for Inhibitors of the Six1/Eya2 Interaction; Homeobox protein SIX1 (Homo sapiens) + Protein phosphatase EYA2 (Homo sapiens), …; AlphaScreen GST-Six1/His-Eya2 binding, biochemical; hits give low values; control for the full effect not named in the record; activity change, % (no concentration beside the values); 0.56% of 360,000 active; AID 651725, 2012; in the data active = activity change below about -65%; inconclusive = about -30% to -65%; inactive = above about -30%; note: % is set by controls: 0 for no effect and ±100 for the full control effect; compound concentration not given in the record
Target sequence (O00167 whole entry, looked up): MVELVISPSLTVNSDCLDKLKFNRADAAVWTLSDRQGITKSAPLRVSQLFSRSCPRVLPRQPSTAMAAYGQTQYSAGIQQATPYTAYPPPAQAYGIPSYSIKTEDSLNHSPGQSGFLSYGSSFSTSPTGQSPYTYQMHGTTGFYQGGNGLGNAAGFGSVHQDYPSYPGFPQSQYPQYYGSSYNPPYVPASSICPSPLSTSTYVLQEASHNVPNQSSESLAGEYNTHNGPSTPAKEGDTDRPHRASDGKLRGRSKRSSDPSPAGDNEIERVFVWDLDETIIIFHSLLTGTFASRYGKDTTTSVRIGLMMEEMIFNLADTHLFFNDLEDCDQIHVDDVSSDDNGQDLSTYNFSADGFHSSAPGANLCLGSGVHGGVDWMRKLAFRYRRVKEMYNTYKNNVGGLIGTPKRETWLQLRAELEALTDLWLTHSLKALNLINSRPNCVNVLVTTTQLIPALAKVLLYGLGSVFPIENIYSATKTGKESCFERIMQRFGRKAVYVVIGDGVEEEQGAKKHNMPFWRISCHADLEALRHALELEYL
Target sequence (Q15475 whole entry, looked up): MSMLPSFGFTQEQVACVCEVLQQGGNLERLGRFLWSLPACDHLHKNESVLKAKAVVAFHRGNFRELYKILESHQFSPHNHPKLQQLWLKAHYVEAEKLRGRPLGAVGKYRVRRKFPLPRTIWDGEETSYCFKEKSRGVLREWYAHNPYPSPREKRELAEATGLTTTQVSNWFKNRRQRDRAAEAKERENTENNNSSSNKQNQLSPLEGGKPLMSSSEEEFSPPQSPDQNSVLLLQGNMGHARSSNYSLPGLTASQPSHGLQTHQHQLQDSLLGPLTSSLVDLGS
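AlphaScreen luminescence read after one hour at 37 °C in darkness. Pin-transferred compounds met GST-Six1 and His-Eya2 protein (5X stock 250 nM/500 nM) plus glutathione donor and Ni-chelate acceptor beads (5X, 50 ug/mL).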
Starred values were filed as active, the others as inactive; ? = inconclusive; . = not tested or not shown; [ ] = dose if it differs, or a comment. Not a hit list; overall some 3.7% were active at least once.

SMILES	D2 potentiator	PINK1 modulator	CtBP-E1A blk	Sfp inh	D2 agonist	TRPV1 PAM	Six1-Eya2 blk
Cc1ccc(C(=O)COC(=O)COc2ccccc2C)cc1	-14	0.5%	28	2%	0.6	16	27
COc1ccc(/C(N)=N/OC(=O)CN(C)S(=O)(=O)c2ccc(C)cc2)cc1	-4	2.0%	.	0%	-2.1	-4	10
O=C(O)c1ccc(N2CC3CC(C2)c2cccc(=O)n2C3)c(NS(=O)(=O)c2cccc(C(F)(F)F)c2)c1 (stereo not given)	-1	-0.6%	10	11%	-3.2	-5	-3
CNS(=O)(=O)c1cccc(C(=O)OCC(=O)N(CCC#N)c2ccccc2)c1	-8	0.4%	13	24%	2.4	4	5
CCCc1cc(=O)oc2cc(OCC(=O)Nc3ccc(CN4CCOCC4)cc3)c(Cl)cc12	-3	9.1%	.	-6%	-0.4	25	2
O=C(Cc1ccccc1)NCc1nc2ccccc2[nH]1	-12	?	0	.	-0.7	.	0
O=C(NCc1ccccn1)C1CCN(S(=O)(=O)c2cc(Cl)ccc2Cl)CC1	-2	-1.9%	-2	5%	3.1	-20	-1
O=c1[nH]cnc2scc(-c3cccs3)c12	1	-2.4%	-3	5%	1.5	20	2
CC1CC2(CCCC2)Nc2ccc(F)cc21 (stereo not given)	-1	10%	8	7%	-1.0	3	-10
COc1ccc(CCN2CC(C(=O)N(C)CC(=O)Nc3cccc(F)c3)CC2=O)cc1OC (stereo not given)	-12	0.9%	0	13%	2.4	7	0
CCc1onc(C)c1C(=O)Nc1ccc2c(c1)OCO2	-5	0.8%	4	15%	-1.1	0	-1
COc1ccc2c(c1)OC(=O)CC2c1ccccc1OC (stereo not given)	3	3.8%	-4	-9%	1.3	.	-14
CN(C)CCN(C(=O)c1ccc2ccccc2c1)c1nc2c(F)cccc2s1	-28	1.8%	5	-4%	-2.0	12	4
CN(C)S(=O)(=O)c1cccc(NC(=O)COC(=O)c2ccc([N+](=O)[O-])o2)c1	78*	5.1%	-1	15%	11	-9	-3
Cc1c(NC(=O)CCc2ccc(S(=O)(=O)N3CCOCC3)cc2)c(=O)n(-c2ccccc2)n1C	-4	-1.5%	4	.	-4.8	.	6
Cc1nnc(SCC2=C(C(=O)O)N3C(=O)C(NC(=O)Cn4nc(C(F)F)cc4C)C3SC2)s1 (stereo not given)	-6	0.1%	.	79µM*	-5.8	2	-7
Cc1ccccc1-c1cc(C(=O)O)n(CC2CC(c3cccnc3)=NO2)n1 (stereo not given)	-8	4.2%	0	.	-0.3	-4	5
CCOc1ccc(C(=O)N/N=C(/C)C2C(=O)c3ccccc3C2=O)cc1	12	0.9%	5	7%	2.6	2	-2
CCC1CCc2sc(C(=O)NCC(c3ccc(OC)cc3)N3CCOCC3)cc2C1 (stereo not given)	-34	?	.	.	-0.6	-10	-13
O=C(CSc1nnc(-c2ccccc2)n1Cc1ccco1)NCc1ccc2c(c1)OCO2	3	-0.1%	-7	?	1.7	-2	-8
COc1ccc(OC)c(C2NC(=S)NC3=C2N2CCC3CC2)c1 (stereo not given)	-28	0.1%	-18	1%	-3.3	8	9
CC(=O)Nc1ccc(NC(=O)[C@@H](NC(=O)N2C[C@H]3C[C@@H](C2)c2cccc(=O)n2C3)C(C)C)cc1	-5	0.5%	2	6%	-4.9	14	-2
COC(=O)C1=CNC=C(C(=O)OC)C1c1cccc(OC)c1	6	0.0%	3	16%	-4.9	1	1
CCOc1ccc(S(=O)(=O)N2CCc3ccccc3C2)cc1	-1	-1.1%	17	-11%	3.2	-8	19
COc1ccc(OC)c(NC(=O)CSc2nc(=O)n(CCN3CCOCC3)c3c2CCC3)c1	23	3.1%	1	.	3.3	-6	-4
CSCCC1NC(=O)N(C(C)C(=O)Nc2cc(Cl)cc(Cl)c2)C1=O (stereo not given)	-9	7.8%	-1	-4%	-1.6	-9	6
CCCc1cc(=O)oc2c(C)c(O[C@@H]3O[C@H](CO)[C@@H](O)[C@H](O)[C@H]3O)ccc12	-4	-2.3%	13	7%	-1.1	-2	-1
CCN(CC)S(=O)(=O)c1ccc(C)c(NC(=O)CN(C)C)c1	-15	-0.2%	-21	20%	0.3	3	2
CC(=O)NCc1ccc(-c2csc(NC(=O)CCCc3nc4ccccc4c(=O)[nH]3)n2)cc1	5	0.5%	.	.	1.4	12	-11
O=C(N[C@@H](Cc1ccccc1)C(=O)OCc1ccccc1)c1ccco1	-1	1.8%	.	.	3.0	.	-1
CCCCOc1ccc(C2CCC(C(C)=O)C(C)C2)cc1 (stereo not given)	-4	9.3%	17	-2%	-5.1	11	40
CC(C)CCC(CCN1CCCC1)c1ccc2c(c1)OCO2 (stereo not given)	-15	1.4%	-14	-21%	-5.4	.	1
Nc1c(N(C(=O)Nc2ccc(Cl)c(Cl)c2)C2CCCC2)c(=O)[nH]c(=O)n1Cc1ccccc1	-35	-1.0%	-3	14%	-7.4	-11	5
CCOC(=O)c1oc2ccc(S(=O)(=O)Nc3ccc4c(c3)n(C)c(=O)n4C)cc2c1C	11	.	3	7%	1.8	0	-4
CN(Cc1ccccc1)C(=O)c1ccc(Nc2nc(C(N)COCc3ccccc3)cs2)nc1 (stereo not given)	3	1.2%	?	.	-1.0	.	?
COC(=O)C1=C(O)/C(=C\c2cc(C)n(-c3ccccc3F)c2C)N=C1C	-6	-0.5%	-2	4%	2.4	-6	-7
COc1ccc(S(N)(=O)=O)cc1C(=O)OCC(=O)Nc1sccc1C#N	-2	0.0%	-9	.	1.4	.	-8
O=C(NCCSc1ccc(Cl)cc1)c1ccc(CN2CCOCC2)cc1	-6	-1.5%	4	10%	1.9	-25	6
Cc1ccc(-n2nc(C)c3c2OC(N)=C(C#N)C3c2ccccc2F)cc1 (stereo not given)	-14	3.1%	-11	-3%	-0.8	10	-1
O=C(OCCOc1ccc(Cl)cc1)c1cc(S(=O)(=O)N2CCCCC2)ccc1N1CCOCC1	-5	-0.6%	.	.	-2.7	.	-6
COc1ccc(OCCNC(=O)c2cccc(Oc3ccc(C(F)(F)F)cc3[N+](=O)[O-])c2)cc1	19	2.7%	-19	-1%	3.3	1	-20
COC(=O)c1c(NC(=O)c2ccc([N+](=O)[O-])o2)sc2c1CCN(C(C)C)C2	-6	5.6%	-13	3%	7.9	2	?
COC(=O)CSc1nc2cc(OC)ccc2n1C	-8	0.6%	.	-6%	-3.6	-2	4
CCOC(=O)C1C(=O)OC(C)(C)C1C(CC)C(=O)c1c(C)cc(C)cc1C (stereo not given)	-8	-1.5%	6	-3%	-4.3	4	4
O=C(COC(=O)c1ccccc1Cl)NCc1cccs1	3	4.1%	4	.	1.5	.	2
COC(=O)C1=C(C)OC(N)=C(C#N)C1c1cc2cc(C)ccc2nc1Cl (stereo not given)	-12	-1.0%	-6	13%	-8.5	-2	-6
Cc1cccc(NC(=O)CN2C(=O)NC(C)(c3ccc4c(c3)OCO4)C2=O)c1 (stereo not given)	-8	4.6%	2	12%	-4.2	-11	-1
O=C(Nc1ccccc1C(F)(F)F)C(O)(c1ccccc1)C1CCCCC1 (stereo not given)	-10	6.7%	2	.	-2.9	-19	5
O=S(=O)(c1ccc(N=C2NN=C(c3cc(F)ccc3F)CS2)cc1)N1CCOCC1	15	?	-9	-20%	-3.2	-3	?
O=C(c1cccc(N2CCCC2=O)c1)N1CCN(c2ccccc2)CC1	-5	-1.7%	3	-4%	-0.2	-4	-4
Continued.
SMILES	D2 potentiator	PINK1 modulator	CtBP-E1A blk	Sfp inh	D2 agonist	TRPV1 PAM	Six1-Eya2 blk
COc1ccccc1-c1ccc(NC2CCCCC2)nn1	-2	1.2%[38.3 µM]	-3	1%	-2.1	-21	0
Cc1cc(C)n(S(=O)(=O)c2ccc(C(C)(C)C)cc2)n1	-6	-0.7%[38.3 µM]	12	-1%	-0.8	-36	9
CCCCNC(=O)Nc1nc2ccccc2s1	-5	3.9%	5	12%	2.3	-12	-1
COc1ccc([N+](=O)[O-])cc1N(CC(O)Cn1nnc2ccccc21)S(=O)(=O)c1ccc(C)cc1 (stereo not given)	12	.	-17	5%	2.4	12	-4
Cc1cccc(OCC(=O)Nc2ccc(C(=O)Nc3ccccc3C(=O)O)cc2)c1	1	1.2%	-8	.	3.4	.	?

Gathered by group: the compounds so far containing a thiophene ring, fused or not.
SMILES	D2 potentiator	PINK1 modulator	CtBP-E1A blk	Sfp inh	D2 agonist	TRPV1 PAM	Six1-Eya2 blk
O=c1[nH]cnc2scc(-c3cccs3)c12	1	-2.4%	-3	5%	1.5	20	2
CCC1CCc2sc(C(=O)NCC(c3ccc(OC)cc3)N3CCOCC3)cc2C1 (stereo not given)	-34	?	.	.	-0.6	-10	-13
COc1ccc(S(N)(=O)=O)cc1C(=O)OCC(=O)Nc1sccc1C#N	-2	0.0%	-9	.	1.4	.	-8
COC(=O)c1c(NC(=O)c2ccc([N+](=O)[O-])o2)sc2c1CCN(C(C)C)C2	-6	5.6%	-13	3%	7.9	2	?
O=C(COC(=O)c1ccccc1Cl)NCc1cccs1	3	4.1%	4	.	1.5	.	2

Only D2 agonist, for 2 of the compounds above:
| Structure | D2 agonist |
| --- | --- |
| COc1ccc(OCCNC(=O)c2cccc(Oc3ccc(C(F)(F)F)cc3[N+](=O)[O-])c2)cc1 | 3.3 |
| COC(=O)c1c(NC(=O)c2ccc([N+](=O)[O-])o2)sc2c1CCN(C(C)C)C2 | 7.9 |

High-throughput results: PubChem BioAssay, National Center for Advancing Translational Sciences (NCATS)
